GLA inh pH 4.5: alpha-galactosidase A (human) inhibition, pH 4.5; purified enzyme, 4-MU-alpha-Gal fluorescence, pH 4.5; P06280; AID 1467; 230,000 tested, under 10 active; activity change, negative = inhibition, % at 105 µM; inconclusive = small, poorly fitted or top-dose-only inhibition, or a rising curve; inactive = flat fitted curve, though single readings scatter; no compound was filed as active;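 also: 0% = full activity with enzyme and -100% = basal without enzyme; dose as in the result columns while the protocol names 77 µM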
Rango complex inh: Rango-importin beta binding inhibition; Q14974; Rango CFP/YFP FRET sensor + importin beta, 45 min; Potency, µM (titrated, usually from 92.2 µM), for inactives: at the top dose inhibition of complex formation; 340,000 tested, 0.031% active; active = rising FRET ratio curve, often small or poorly fitted; inconclusive = mostly compound fluorescence or quenching in the first reads; inactive = flat curves in all reads;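 also: potency is read from the fitted curve at half-maximal effect; 0% = DMSO wells and 100% = buffer wells lacking importin beta; nearly all actives have a fitted effect of over 15% in size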
Target sequence (Q14974 whole entry, looked up): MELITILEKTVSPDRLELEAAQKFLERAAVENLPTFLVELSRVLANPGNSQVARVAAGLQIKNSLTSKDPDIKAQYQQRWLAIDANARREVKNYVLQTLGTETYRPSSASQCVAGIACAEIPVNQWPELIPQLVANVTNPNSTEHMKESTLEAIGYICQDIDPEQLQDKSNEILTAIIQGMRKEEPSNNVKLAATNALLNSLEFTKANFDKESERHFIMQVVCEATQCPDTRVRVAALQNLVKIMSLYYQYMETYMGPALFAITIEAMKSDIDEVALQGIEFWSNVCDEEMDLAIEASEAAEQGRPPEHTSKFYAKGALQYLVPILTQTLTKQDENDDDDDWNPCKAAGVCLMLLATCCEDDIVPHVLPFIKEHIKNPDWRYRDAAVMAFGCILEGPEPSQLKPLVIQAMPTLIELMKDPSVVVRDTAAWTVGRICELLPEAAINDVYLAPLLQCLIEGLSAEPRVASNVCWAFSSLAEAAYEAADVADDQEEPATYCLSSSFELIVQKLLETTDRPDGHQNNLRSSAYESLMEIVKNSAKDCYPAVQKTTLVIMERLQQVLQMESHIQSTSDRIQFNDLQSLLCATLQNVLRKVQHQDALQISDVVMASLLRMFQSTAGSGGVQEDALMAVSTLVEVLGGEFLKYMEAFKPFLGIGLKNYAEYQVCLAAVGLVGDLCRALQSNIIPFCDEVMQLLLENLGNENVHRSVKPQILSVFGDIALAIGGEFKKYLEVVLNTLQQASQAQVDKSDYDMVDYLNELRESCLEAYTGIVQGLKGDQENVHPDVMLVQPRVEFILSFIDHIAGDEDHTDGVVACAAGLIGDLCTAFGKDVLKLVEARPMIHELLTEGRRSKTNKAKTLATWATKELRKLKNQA
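FRET biosensor (snurportin 1 IBB flanked by EYFP and cerulean), 50 nM, with compound 5 min, then 0.125 microM importin beta in PBS, 1 mM DTT, 0.02% Tween-20, 0.1% BSA. CFP/YFP ratio read after 45 min at room temperature; pre-read flags interference.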
Rango dissoc inh: prevents RanGTP from dissociating the Rango-importin beta complex. Biochemical FRET Rango-importin beta, RanGTP-induced dissociation. 340,000 tested, 0.071% active. O95149+P62826. AID 540253. Potency, µM (titrated, usually from 46.1 µM), for inactives: at the top dose activity change, negative = inhibition; active means falling FRET ratio curve, often poorly fitted, with flat reads before Ran was added; inconclusive means other falling curves, or compound fluorescence or quenching; inactive means flat or rising ratio curve;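 also: potency is read from the fitted curve at half-maximal effect; % of control where 0% means no effect; nearly all actives have a fitted effect of over 45% in size; -100% = wells without RanGTP and RCC1; the record marks most hits as doubtful in a second field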
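Two FRET readings bracket the reaction: one 5 min after compound meets Rango–importin beta, another 45 min after RanGTP-RCC1 (0.6 uM Ran, 0.2 uM RCC1, 2 mM GTP) is added. Only the second defines inhibition.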
miR-21 FLuc: miR-21 reporter, rising signal. Potency, µM (highest dose often 38.3 µM), without a hit: at the top dose reporter change, positive = more light. HeLa miR-21 FLuc reporter, luciferase, 48 h. 340,000 tested, under 10 active; active = well fitted rising curve with a large enough effect; inconclusive = small, poorly fitted or top-dose-only effect; inactive = no such curve, though single readings can be large or run the other way;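 also: % of control where 0% means no effect; miR-21 action dims this reporter so a rising signal means less miR-21 action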
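Compounds were titrated across several concentrations (up to approximately 40 uM) and incubated 48 hours with HeLa miR-21-FLuc reporter cells (miR-21 target sequence downstream of FLuc, endogenous miR-21). Readout was firefly luciferase luminescence after lytic detection reagent.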
An asterisk follows results filed as active; u = inconclusive; x = no result given; & = joins results of further samples.

SMILES	GLA inh pH 4.5	Rango complex inh	Rango dissoc inh	miR-21 FLuc
CCN1C(=NCc2ccc(OC)cc2)N[C@@H](CCc2ccccc2)[C@H](C(=O)NCc2ccc(OC)cc2)[C@H]1C	x	-0.3%	-8%	u
CCc1nc2c(c(=O)[nH]1)C1(CCCC1)Cc1ccccc1-2	-2	12%	23%	3%
CC(=O)c1cc2c(cc1NC(=O)c1ccc(C)cc1)OCO2	10	x	x	-1%
CCCCC1NC(=S)N(C2CCCCC2)C1=O (stereo not drawn)	-1	2.0%	0%	-10%
Cc1cccc(NC(=O)Cn2c(O)c(N=NC(N)=S)c3ccccc32)c1	-1	0.1%	-6%	15%
c1ccc2c(-c3[nH]ncc3CNCCCn3ncc4ccccc43)cccc2c1	-7	u	-4%	8%
CCOc1ccc(NC(=S)N/N=C(\C)Cc2ccc(OC)cc2)cc1	3	-0.7%	-1%	-18%
O=C(O)C1=NN(c2c(F)c(F)cc(F)c2F)C(=O)CC1	x	1.8%	5%	-1%
O=C(Nc1nc(-c2ccccn2)cs1)C1CC(=O)N(c2ccc3c(c2)OCCO3)C1 (stereo not drawn)	0	-4.3%	-2%	-3%
Cc1ccc(S(=O)(=O)NC(=O)NN2CCCCCC2)cc1	4&-2&4&8	0.8%	-5%	-1%
O=C(Cn1cnc2c(nnn2-c2ccccc2)c1=O)NCC1CCCO1 (stereo not drawn)	6	0.6%	1%	-5%
CCN(CC)S(=O)(=O)c1ccc(C(=O)NC2=C(C(=O)OC)SCC2)cc1	-7	0.5%	1%	6%
S=c1[nH]nc(-c2cc(-c3ccccc3)n[nH]2)n1/N=C/c1ccc(Cl)cc1	-4	0.0%	-18%	-23%
COc1ccc(C2CC(c3ccccc3)Nc3nc(NC(=O)c4cccs4)nn32)cc1 (stereo not drawn)	-8	0.1%	4%	2%
CCOc1ccc(S(=O)(=O)c2c[nH]c3ccccc3c2=O)cc1	x	-11%	1%	-6%&-12%
Cc1ccc(NC(=O)CCN2C(=O)c3ccccc3Sc3ncccc32)cc1	x	-1.0%	-7%	2%&-7%
CCN1CCCC1CNS(=O)(=O)c1ccc(F)c(Cl)c1 (stereo not drawn)	x	0.0%	-17%	-1%
N/C(=N\OC(=O)CCCOc1ccccc1)c1cccc([N+](=O)[O-])c1	-10	1.6%	2%	-5%
Cc1ccc(-c2nnn(CC(=O)NC(=O)NC3CCCCC3)n2)cc1	x	0.7%	2%	x
COc1ccc(NC(=S)NNC(=O)C(C)n2nc(C)c([N+](=O)[O-])c2C)cc1 (stereo not drawn)	8	2.4%	-9%	1%
O=C(NCC1COc2ccccc2O1)C1CCCN(S(=O)(=O)c2cccc3nsnc23)C1 (stereo not drawn)	-15	3.6%	1%	-1%
CC(=O)N1c2ccc(S(=O)(=O)N3CCC(C(=O)N4CCN(c5ccccc5)CC4)CC3)cc2CC1C (stereo not drawn)	x	3.8%	1%	12%
Cc1cccc(NC(=O)CCNC(=O)c2ccccc2Cl)n1	x	-1.6%	-10%	3%
O=S(=O)(O)c1cccnc1SCc1ccccc1	x	-1.9%	-1%	x
Cc1cccc(-c2cc3c(N=O)c4ccccc4c-3n[nH]2)c1	-5	3.7%	-2%	-46%
CCCCNC(=O)[C@H]1N2C(=O)c3c(ccc(OC)c3OC)C2SC1(C)C (stereo partly drawn)	x	0.0%	-1%	0%
O=C(/C=C/Nc1ccc(F)cc1Br)c1ccccc1	0	0.6%	-9%	-6%
COc1ccc([N+](=O)[O-])cc1N(CC(O)CN1CCOCC1)S(=O)(=O)c1ccccc1 (stereo not drawn)	x	3.4%	0%	-1%
Cc1ccc(Oc2ncccc2/C=N/O)cc1	0	2.0%	-10%	2%
N#CC1=C(S)N=C(N)C(c2nc(-c3ccccc3)cs2)C12CCCC2 (stereo not drawn)	3	-3.8%	1%	-3%
CCN(C(=O)COC(=O)Cc1coc2cc(C)ccc12)c1c(N)n(Cc2ccccc2)c(=O)[nH]c1=O	x	-2.5%	-3%	x
Cc1ccc(/C=N/NC(=O)CSc2nc3ccccc3s2)o1	1	2.5%	7%	-12%
CCOc1ccccc1NC(=O)Cn1c(=O)oc2cc(Cl)ccc21	x	4.1%	13%	1%
COCCCN(C(=O)c1ccco1)c1nc(-c2ccc(OC)cc2)cs1	x	-1.5%	-16%	-8%
CC(NS(=O)(=O)c1ccc2c(c1)OCCO2)c1ccccc1 (stereo not drawn)	-8	-2.6%	2%	-4%
O=C(Nc1cccc(F)c1)Nc1cccc(Cl)c1	x	2.9%	-4%	17%
COC(=O)C1CCN(C(=O)Nc2ccccc2)CC1	6	-0.9%	-12%	1%
COc1ccc(NC(=O)CCNC(=O)C2CCN(S(=O)(=O)c3ccc(OC)cc3)CC2)cc1	x	-0.4%	25%	0%
CC(C)C(=O)N1CCC(Cc2ccccc2)CC1	x	2.4%	16%	-2%
Cc1[nH]c(=O)[nH]c(=O)c1N1CCOCC1	-4	0.0%	5%	-9%

18 entries from above, sorted by molar mass, low to high:
SMILES	GLA inh pH 4.5	Rango complex inh	Rango dissoc inh	miR-21 FLuc
Cc1[nH]c(=O)[nH]c(=O)c1N1CCOCC1	-4	0.0%	5%	-9%
Cc1ccc(Oc2ncccc2/C=N/O)cc1	0	2.0%	-10%	2%
CC(C)C(=O)N1CCC(Cc2ccccc2)CC1	x	2.4%	16%	-2%
COC(=O)C1CCN(C(=O)Nc2ccccc2)CC1	6	-0.9%	-12%	1%
O=C(Nc1cccc(F)c1)Nc1cccc(Cl)c1	x	2.9%	-4%	17%
O=S(=O)(O)c1cccnc1SCc1ccccc1	x	-1.9%	-1%	x
Cc1cccc(-c2cc3c(N=O)c4ccccc4c-3n[nH]2)c1	-5	3.7%	-2%	-46%
Cc1cccc(NC(=O)CCNC(=O)c2ccccc2Cl)n1	x	-1.6%	-10%	3%
CC(NS(=O)(=O)c1ccc2c(c1)OCCO2)c1ccccc1 (stereo not drawn)	-8	-2.6%	2%	-4%
O=C(/C=C/Nc1ccc(F)cc1Br)c1ccccc1	0	0.6%	-9%	-6%
Cc1ccc(/C=N/NC(=O)CSc2nc3ccccc3s2)o1	1	2.5%	7%	-12%
CCOc1ccccc1NC(=O)Cn1c(=O)oc2cc(Cl)ccc21	x	4.1%	13%	1%
COCCCN(C(=O)c1ccco1)c1nc(-c2ccc(OC)cc2)cs1	x	-1.5%	-16%	-8%
CCCCNC(=O)[C@H]1N2C(=O)c3c(ccc(OC)c3OC)C2SC1(C)C (stereo partly drawn)	x	0.0%	-1%	0%
COc1ccc(NC(=S)NNC(=O)C(C)n2nc(C)c([N+](=O)[O-])c2C)cc1 (stereo not drawn)	8	2.4%	-9%	1%
COc1ccc([N+](=O)[O-])cc1N(CC(O)CN1CCOCC1)S(=O)(=O)c1ccccc1 (stereo not drawn)	x	3.4%	0%	-1%
O=C(NCC1COc2ccccc2O1)C1CCCN(S(=O)(=O)c2cccc3nsnc23)C1 (stereo not drawn)	-15	3.6%	1%	-1%
CCN(C(=O)COC(=O)Cc1coc2cc(C)ccc12)c1c(N)n(Cc2ccccc2)c(=O)[nH]c1=O	x	-2.5%	-3%	x

(next part)
SMILES	GLA inh pH 4.5	Rango complex inh	Rango dissoc inh	miR-21 FLuc
O=C(Nc1ccccc1N1CCN(C(=O)c2ccc(Cl)cc2)CC1)c1cccc(F)c1	x	0.0%	-5%	14%
COc1ccc(C2CC(=O)c3c([nH]c(C(=O)OC(C)C)c3C)C2)cc1OC (stereo not drawn)	7	0.7%	-17%	-6%
COc1ccc(-c2noc(-c3ccccc3C(=O)Nc3cccc(OC)c3)n2)cc1	-11	0.5%	-19%	-9%
COC(=O)c1ccc(NC(=O)c2ccc3nsnc3c2)cc1	x	1.1%	0%	-23%
CCOC(=O)c1sc(=S)n(-c2ccccc2)c1NC(C)=O	0	-0.5%	5%	-2%
CC(C)(C)c1cc(C(=O)O)n(Cc2ccc(Cl)cc2Cl)n1	3	-0.9%	-11%	5%
CCCCOc1ccc(C(=O)OCC(=O)N2CCCCCC2)cc1	x	-4.5%	1%	x
COc1cccc(/C=C/c2n[nH]c(=O)c(C#N)c2C)c1	x	4.6%	-3%	5%
COC(=O)c1cc(C(=O)NCc2ccc3c(c2)OCO3)cc([N+](=O)[O-])c1	x	-5.2%	3%	-2%
CNc1nc(Sc2ccc(C)cc2)cc(C(F)(F)F)n1	-1	4.2%	24%	-1%
Cc1cc(C)cc(NC(=O)COC(=O)CCc2ccc(S(=O)(=O)N3CCOCC3)cc2)c1	-11	-0.9%	-19%	-1%
CSCCC(C(=O)NC1=NCCS1)N1C(=O)c2ccccc2C1=O (stereo not drawn)	-3	1.2%	-8%	-5%
O=C(N/N=C/C1CC=CCC1)c1cc2ccccc2cc1O (stereo not drawn)	-2	u	u	-16%
COc1ccc(C(=O)OCC(=O)Nc2ccc(Cl)cn2)cc1	10	-2.6%	12%	0%
COc1ccc(S(=O)(=O)N2CCN(C(=O)c3cc(-c4ccc(C)cc4)n[nH]3)CC2)cc1	x	-1.2%	8%	5%
COc1ccc(CN2CN(C(C)C)CSC2=S)cc1	0	2.1%	-2%	0%
O=c1oc2c(O)cccc2cc1-c1nc2ccccc2[nH]1	x	4.6%	u	-44%
Cc1cc(C)c(S(=O)(=O)N2CCCC(C(=O)NCc3ccncc3)C2)c(C)c1 (stereo not drawn)	x	2.1%	0%	0%
CN1CC=C2C(C#N)=C(N)C(C#N)(C#N)[C@H](c3cccc(Cl)c3)C2C1 (stereo partly drawn)	16	u	u	0%
COC(=O)c1ccc(/C=N\N2CCN(c3ccccc3)CC2)cc1	x	0.1%	9%	-21%
Cc1cccc(C)c1NS(=O)(=O)c1ccc(-c2ccc(=O)[nH]n2)o1	x	0.7%	-7%	0%
COc1ccc(C(CNC(=O)c2ccc(C)o2)N2CCOCC2)cc1 (stereo not drawn)	x	-3.5%	-12%	x
Cc1nc2c(C)cccc2cc1C(=O)N/N=C/c1ccc(N(C)C)cc1	-7	u	0%	23%
Clc1ccc(C2[C@H]3CN(Cc4ccc(-c5ccccc5)cc4)[C@H](c4ccccc4)C34CC2(c2ccccc2)C4)cn1 (stereo partly drawn)	2&1	0.2%	8%	-2%
Cc1cc(C)n2nc(Cc3ccccc3)nc2n1	-9	5.0%	7%	-2%
C=CCn1c(C)nc2c(sc3nc4c(cc32)COC(C)(C)C4)c1=O	10	-1.2%	-14%	-61%
CC(Sc1ccc(Cl)cc1)C(=O)NNC(=O)c1ccco1 (stereo not drawn)	x	-0.4%	20%	x
CN(CC(=O)N(C)CC(=O)Nc1c(Cl)cccc1Cl)Cc1ccc(Br)s1	x	0.2%	19%	x
O=C(CCCN1C(=O)/C(=C/c2ccccc2Cl)SC1=S)NNC(=O)c1ccc(Cl)cc1	-9	1.0%	-2%	25%
COC(=O)c1ccc2c(c1)NC(=O)C1CCCN21 (stereo not drawn)	x	-6.3%	u	x
Clc1ccc(OCCCN2CCCC2)cc1Cl	1	-1.2%	-8%	-1%
C/C(=N\Nc1cc(N2CCOCC2)ncn1)c1ccc(O)cc1	x	5.0%	-8%	-34%
COc1ccc(-n2c(CN3CCN(c4ccccc4)CC3)nc3ccc([N+](=O)[O-])cc3c2=O)c(OC)c1	x	0.3%	-2%	-1%

A portion of the library; the hit share may differ from the screen's.
